PINK1 expr mod: changes PINK1 expression; PINK1 immunofluorescence, high-content cytometry, 24 h; Potency, µM (top dose mostly 76.6 µM), for inactives: at the highest dose activation (PINK1 increase), usual class: activators; 410,000 tested, 0.2% active; active = well fitted activation curve with a large enough effect; inconclusive = small, poorly fitted or top-dose-only effect; inactive = flat fitted curve, though single readings scatter; cell line not stated here;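 also: potency is read from the fitted curve at half-maximal effect; % of control where 0% means no effect; nearly all actives have a fitted effect of over 65% in size; a mitochondrial uncoupler was the plate control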
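Readout is PINK1 immunofluorescence, quantified alongside mitochondrial, cell and nuclear markers by laser-scanning microplate cytometry. Cells from a stable line were exposed to compound titrations (5 concentrations) for 24 hours, with CCCP controls.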
Six1-Eya2 blk: blocks human Six1 binding to Eya2 | Q15475+O00167 | AlphaScreen GST-Six1/His-Eya2 binding, biochemical; hits give low values; control for the full effect not named in the record | activity change, % (test concentration not listed) | 360,000 tested, 0.56% active | AID 651725; in the data active = activity change below about -65%; inconclusive = about -30% to -65%; inactive = above about -30%; also: % is scaled to controls: 0 for no effect and ±100 for the full control effect; compound concentration not given in the record
Target sequence (O00167 whole entry, looked up): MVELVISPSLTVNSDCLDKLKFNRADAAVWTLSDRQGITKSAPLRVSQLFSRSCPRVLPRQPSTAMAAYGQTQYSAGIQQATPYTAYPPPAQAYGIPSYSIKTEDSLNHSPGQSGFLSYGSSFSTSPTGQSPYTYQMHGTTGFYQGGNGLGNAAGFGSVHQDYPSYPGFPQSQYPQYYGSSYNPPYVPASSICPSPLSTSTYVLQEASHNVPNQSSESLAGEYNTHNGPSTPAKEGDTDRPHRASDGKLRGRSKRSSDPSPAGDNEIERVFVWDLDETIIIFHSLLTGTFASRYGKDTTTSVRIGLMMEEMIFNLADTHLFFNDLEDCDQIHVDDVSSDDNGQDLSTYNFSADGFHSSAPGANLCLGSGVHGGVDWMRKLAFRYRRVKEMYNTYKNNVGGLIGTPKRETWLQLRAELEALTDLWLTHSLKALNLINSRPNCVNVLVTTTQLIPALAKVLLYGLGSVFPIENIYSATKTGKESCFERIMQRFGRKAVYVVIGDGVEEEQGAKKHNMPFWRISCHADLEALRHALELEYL
Target sequence (Q15475 whole entry, looked up): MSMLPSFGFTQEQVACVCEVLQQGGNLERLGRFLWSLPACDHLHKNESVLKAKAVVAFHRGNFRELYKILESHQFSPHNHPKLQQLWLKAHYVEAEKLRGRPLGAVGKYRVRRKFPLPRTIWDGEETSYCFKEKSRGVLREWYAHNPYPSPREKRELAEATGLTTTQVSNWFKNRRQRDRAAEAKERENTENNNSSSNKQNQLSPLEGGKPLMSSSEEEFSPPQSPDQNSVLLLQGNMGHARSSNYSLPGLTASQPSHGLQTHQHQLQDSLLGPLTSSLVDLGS
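Six1/Eya2 binding was read as AlphaScreen signal after compounds were pinned into GST-Six1 plus His-tagged Eya2 (5X stock 250/500 nM) in pH 8.0 Tris/NaCl/TCEP buffer, beads added, then incubated 1 h, 37 C, dark.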
TRPML1 agonist: activates the human TRPML1 channel | Q9GZU1 | TRPML1-expressing cells, Ca2+ dye fluorescence, FDSS; host cell line not named in the record; reference of the full effect not given here | activation, % (test concentration not listed) | 410,000 tested, 0.12% active; in the data active = activation above about 50%; inconclusive = about 30% to 50%; inactive = below about 30%; also: 0% is about no effect; the text of the record puts the active cut at 80%
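TRPML1-DL cells, Tet-induced overnight (~16 h, 37 degrees C), loaded 45-90 min at room temperature with Ca8 no-wash calcium dye plus quencher. FDSS fluorescence: 10 s baseline, compound pin-transfer, 110 s agonist read, then EC80 54-4 (4uM final) and 110 s antagonist read.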
TRPML1 blocker: blocks the human TRPML1 channel; Q9GZU1; TRPML1-inducible cells, Ca2+ dye fluorescence, FDSS; hits give low values; inhibition of EC80 agonist-evoked calcium signal; activity change, negative = inhibition, % (concentration not given with the values); 390,000 tested, 0.02% active; in the data active means activity change below about -50%; inconclusive means about -30% to -50%; inactive means above about -30%;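 also: stimulus is agonist 54-4 at its EC80 concentration; % is scaled to controls: 0 for no effect and ±100 for the full control effect; compound concentration not given in the record; the text of the record puts the active cut at -80%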
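TRPML1-DL cells, Tet-induced overnight (~16 h, 37 °C) at 1,500 cells/well, were loaded with Ca8 no-wash dye plus quencher for 45-90 min at room temperature. Compounds were pinned during FDSS kinetic reading; agonist 54-4 at EC80 (4 uM final) then added.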
D2 PAM: positive allosteric modulators of human D2 dopamine receptor | potentiation, % (test concentration not listed) | DiscoveRx D2 beta-arrestin cells, luminescence, 90 min; 100% = 57 uM dopamine signal | P14416 | 360,000 tested, 0.23% active; active = potentiation of 50% or more; inconclusive = 30% to 50%; inactive = 30% or less;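 also: compound concentration not given in the record; tested on top of an EC20 dose of dopamine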
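D2 cells co-treated with compound plus 50 nM dopamine (EC20) for 90 min at 37 deg C to detect potentiation. Beta-arrestin recruitment was read as enzyme-fragment luminescence after 1 h at ambient temperature. Full response was set by 57 uM dopamine.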
D2 agonist: human D2 receptor agonism in beta-arrestin assay | P14416 | DiscoveRx PathHunter D2 beta-arrestin, luminescence, 90 min; 100% = 57 uM dopamine signal | activation, % (concentration not given with the values) | 360,000 tested, 0.084% active; in the data active = activation above about 40%; inconclusive = about 15% to 40%; inactive = below about 15%; also: compound concentration not given in the record; the text of the record calls up to 30% inactive
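DiscoveRx PathHunter D2 beta-arrestin cells (2,100/well) attached overnight, then compound-stimulated 90 min at 37 C in HBSS/10 mM HEPES/0.1% Tween-20 buffer; beta-galactosidase complementation read by luminescence after 1 h at ambient temperature. Dopamine 57 uM final (EC100) as control.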
* = called active by the depositor; ? = inconclusive; . = no result given; & = joins results of further samples; [ ] = remark or other dose. Rows are unselected (roughly 1% active in at least one column).

Preview, 2 compounds:
SMILES	PINK1 expr mod	Six1-Eya2 blk	TRPML1 agonist	TRPML1 blocker	D2 PAM	D2 agonist
O=C(Cn1cc(C(F)(F)F)ccc1=O)N1CCCc2ccccc21	-0.1%	-8	0.4	-9	-16	-2.9
O=C(NCC1(N2CCOCC2)CCCCC1)c1cccc(S(=O)(=O)N2CCc3ccccc3C2)c1	-1.3%	16	1.2	-6	-2	-0.1

Main list, from the start:
SMILES	PINK1 expr mod	Six1-Eya2 blk	TRPML1 agonist	TRPML1 blocker	D2 PAM	D2 agonist
O=C(Cn1cc(C(F)(F)F)ccc1=O)N1CCCc2ccccc21	-0.1%	-8	0.4	-9	-16	-2.9
O=C(NCC1(N2CCOCC2)CCCCC1)c1cccc(S(=O)(=O)N2CCc3ccccc3C2)c1	-1.3%	16	1.2	-6	-2	-0.1
CCOc1ccc(-c2noc(CSc3nnc(Cc4ccccc4)n3-c3ccc(F)cc3)n2)cc1	0.1%	.	2.2	36	.	.
N#Cc1ccc(NCC(=O)Nc2ccc3c(c2)OCCO3)cc1	1.1%	-6	-0.3	-4	-3	1.4
Cc1ccc(C)c(NC(=O)CSc2ncc3c(n2)-c2ccccc2N(Cc2ccccc2C)S3(=O)=O)c1	3.2%	.	0.8	9	.	.
Cc1cc(Br)ccc1NC(=O)CNC(=O)CN1C(=O)NC2(CCCCCC2)C1=O	.	4	-0.1	30	-9	-0.1
O=S(=O)(Nc1cccc(Br)c1)c1cccc2nsnc12	-1.5%	17	1.4	-5	-5	3.8
CC(Sc1n[nH]c(=O)n1Cc1ccccc1)C(=O)NC1CCCCC1C (configuration not stated)	2.7%	6	-0.6	-7	-7	-3.9
O=C(CSc1nnc(-c2cccnc2)o1)c1cc2ccccc2oc1=O	-3.1%	0	0.0	1	-4	2.9
N#Cc1ccc(-c2nc3ccc(Br)cn3c2Cc2cccc(Cl)c2)cc1	-0.5%	7	1.5	53	-14	-5.4
COc1cc(C(C(=O)NC2CCCC2)N(C(=O)Cc2cccs2)C2CC2)cc(OC)c1OC (configuration not stated)	7.4%	7	0.2	8	-9	0.1
O=C(c1cc(F)cc(F)c1)N1CCC(c2nc(-c3ccc(S(=O)(=O)N4CCCC4)cc3)no2)CC1	0.7%	.	-0.3	1	.	.
O=C(Nc1nc2ccccc2[nH]1)c1ccc(F)c(S(=O)(=O)N2CCOCC2)c1	0.3%	?	-0.2	0	1	0.7
Cc1cc(C)c2nc(NNC(=O)c3cc(-c4cccs4)nc4ccccc34)sc2c1	6.3%	-9	-0.6	0	-4	0.8
CCN(CC)C(=O)C1CCN(S(=O)(=O)c2ccc(-n3cnnn3)cc2)CC1	-0.8%	13	0.3	7	-16	0.2
COc1ccc(C(=O)NC(=S)NC2CCCCC2)cc1	4.9%	-25	2.4	33	5	-2.7
CCn1c(COc2ccccc2)nnc1SCC(=O)Nc1cc(C)ccc1OC	2.0%[38.3 µM]	-2	2.2	-8	-9	1.8
O=C1NC(=O)/C(=C/c2ccc(OS(=O)(=O)c3ccc(F)cc3F)cc2)N1	1.1%	-7	-0.8	-1	3	-2.4
COc1ccc(CNS(=O)(=O)c2cc(-c3cc(C)no3)ccc2OC)cc1OC	-0.4%	4	-0.3	-15	-15	-5.0
CCOC(=O)c1c(NC(=O)CSC(=S)N2CCOCC2)sc(C)c1C	15%	-1	-0.5	16	-9	-0.1
CC(C)N=C(Nc1ccccc1)c1cccnc1	3.1%	-1	-0.7	-7	-11	-5.4
CCc1nc2ccc(C(=O)N3CCN(C(=O)c4ccco4)CC3)cn2c1N(C)C(=O)c1cccc(OC)c1	1.1%	0	-0.2	.	-6	-5.6
O=C(C[C@H]1C[C@@H]2c3cc(NC(=O)C4CCC4)ccc3O[C@@H]2[C@H](CO)O1)NC1CCCCC1	2.2%	29	-0.4	18	-8	-4.4
Cc1ccc(C(=O)NNC(=O)c2ccncc2)cc1C	1.6%	4	-0.5	8	0	-0.9
COc1ccc(NC(=O)CN(C)C(=O)c2sc3cc(Cl)ccc3c2Cl)cc1	8.8%	-7	-1.1	-2	25	-2.6
C[C@]12CC[C@@H]3c4cc(O)c(O)cc4CC[C@H]3[C@@H]1CC[C@@H]2O	1.6%	-15	0.5	11	3	6.5
COCCN=C(NS(=O)(=O)c1cccs1)c1ccccc1Cl	2.0%	3	-0.3	0	21	1.5
COc1ccc(NC(=S)NN2CCOCC2)cc1OC	-2.4%	8	0.1	-1	-10	-5.5
Nc1cc([N+](=O)[O-])ccc1OCc1ccccc1	-0.1%	-6	1.2	2	-17	0.4
CCN(CC)c1ccc(NC(=S)NCC2CCCO2)cc1 (configuration not stated)	0.6%	-27	0.4	-2	4	4.8
CCC(=O)Nc1nc(-c2ccc3c(c2)OCCO3)cs1	2.6%	4	1.5	?	-1	1.9
O=C(O)c1cc2ccc3ccccc3c2[nH]1	.	-2	0.8	1	12	-1.8
CCOC(=O)c1ccc(-c2ccc(/C=C(\C#N)C(=O)Nc3ccc(OCC)cc3)o2)cc1	2.6%	.	1.5	10	.	.
CCN(CC)c1ccc(/C=N/NC(=S)NCc2ccc(OC)cc2)cc1	8.8%	-8	2.9	8	-18	-5.9
CC(=O)C1=C(O)C(=O)N(CCC(=O)O)C1c1ccccc1Cl (configuration not stated)	?	5	1.1	11	-12	-3.1
COc1cccc2cc(-c3nc4sc(C(=O)Nc5ccc(F)cc5F)c(C)c4c(=O)[nH]3)c(=O)oc12	?	.	1.3	-15	.	.
COc1ccc(N2CCN(C(=O)[C@H](C)NC(=O)c3ccccc3Cl)CC2)cc1	7.8%	-4	0.9	0	-1	6.4
CCCN(CCC)CCCNC(=O)C1CCN(S(=O)(=O)CC)CC1	4.3%	.	0.0	-8	.	.
CCOc1cccc(/C=N/NC(=O)c2cccnc2)c1O	0.4%	?	.	.	-15	0.2
CN(C)c1cccc(C(=O)Nc2cc(C(F)(F)F)ccc2-n2cnc3ccccc32)c1	3.2%	-3	-0.4	8	-3	-2.5
Cc1ccc(CN2CCN(Cc3cc4ccccc4o3)CC2CCO)cc1 (configuration not stated)	1.2%	-5	.	.	-61	-1.5
CC(C)c1cnc2c(c1SCC(=O)c1ccc(Cl)cc1)c(=O)n(C)c(=O)n2C	-0.1%	.	4.8	28	.	.
O=C(Nc1cccc(-c2cn3ccccc3n2)c1)c1cccs1	-1.2%	-2	-0.3	-12	-10	-2.1
NS(=O)(=O)c1cccc(NC(=O)CN2CCCc3ccccc32)c1	0.5%	5	0.7	8	-2	-0.5
Cc1ccc(Nc2n[nH]c(C)c2[N+](=O)[O-])cc1C	3.3%	-11	0.1	3	-22	-4.6
Cc1cc(C(=O)NCCN2CCOCC2)ccc1[N+](=O)[O-]	-0.3%	-2	0.5	-11	-8	-2.0
O=C(OCc1cnc(Cl)s1)c1cccc(Cl)c1	0.4%	20	0.6	-9	1	-0.5
COc1ccc(CCNC(=O)CSc2nc(N)c(C#N)c(-c3cccs3)c2C#N)cc1OC	-2.7%[38.3 µM]	-5	-0.1	4	-1	-0.1
COc1cccc(C(=O)O/N=C(\N)c2ccccn2)c1	7.4%	4	.	.	55*	13
CN1CCN(C(=O)/C=C/c2c(F)cccc2Cl)CC1	-0.7%	2	-0.3	11	-12	-3.3
Cc1ccccc1C(=O)NNC(=O)c1ccc2nc[nH]c2c1	-0.2%	-7	0.5	-2	5	1.5
Cc1sc2nc(-c3ccccc3)oc(=O)c2c1C	0.0%	3	-1.1	7	-6	-2.7
Cc1ccc(-c2nc3cnccn3c2Nc2ccc3c(c2)OCO3)cc1	4.8%	?	-0.2	5	0	2.6
Cc1cccc(NC(=S)N2CCCCC2c2cccnc2)c1C (configuration not stated)	-0.8%	6	1.0	-4	-3	-3.3
Cc1ccc(C)c(S(=O)(=O)NCc2ccc(C(=O)N3CCOCC3)cc2)c1	1.1%	-3	0.6	3	-5	0.5
NN1C(=O)/C(=C2/Sc3ccccc3N2CCCS(=O)(=O)O)SC1=S	-1.0%	-1	0.4	6	-26	-2.5
CSc1nnc2c(n1)c(C)nn2-c1cccc(C)c1	3.3%	?	0.2	-5	-9	-5.5
Cc1ccc(-n2c(=O)cc(N3CCc4ccccc4C3)[nH]c2=O)cc1	-1.0%	7	-0.7	-13	-6	-4.1
COc1ccc(S(=O)(=O)NCc2cccnc2)cc1C	1.6%	-15	-0.3	14	-8	-0.7
O=C1CCCC(=O)C1=Cc1c[nH]c2ccccc12	-1.7%	-5	0.0	17	7	-1.9
(list continues)
SMILES	PINK1 expr mod	Six1-Eya2 blk	TRPML1 agonist	TRPML1 blocker	D2 PAM	D2 agonist
O=C(N/N=C/c1ccc([N+](=O)[O-])o1)C(O)c1ccccc1 (configuration not stated)	45µM*	2	2.4	11	-2	-1.5
O=C(NCc1ccccn1)c1cccc(S(=O)(=O)N2CCc3ccccc32)c1	-2.4%	6	-0.4	-9	-16	-3.2
COC(=O)c1c(NC(=O)C2CCCCC2)sc2c1CCN(C(C)C)C2	6.8%	-4	0.0	7	-11	-6.5
CC(=O)Nc1ccc(NC(=O)Cn2c(CC(=O)N3CCCC3)nc3ccccc32)cc1	-0.6%[38.3 µM]	1	1.6	14	-10	2.4
CCCN(C(=O)COC(=O)C12CCC(=O)N1c1ccccc1S2)c1c(N)n(Cc2ccccc2)c(=O)[nH]c1=O (configuration not stated)	-1.0%	0	-0.2	12	-11	-4.4
Cc1ccc(CNC(=O)c2ccc3oc(=O)n(Cc4ccccc4)c3c2)cc1	-0.9%	.	0.8	5	.	.
COc1cc(C(=O)NCC(c2ccco2)N2CCc3ccccc32)cc(OC)c1OC (configuration not stated)	4.9%	-20	0.1	-10	-7	-2.0
Cc1cccc(N2CCN(C(=O)c3noc4c3COc3ccc(C)cc3-4)CC2C)c1 (configuration not stated)	1.5%&-0.5%	-8	0.1&2.5	22&2	-9	-3.7
CCN(c1ccccc1)S(=O)(=O)c1cc2c(cc1C)NC(=O)CO2	0.5%	-2	0.1	-1	0	1.6
COc1ccc(OC)c([N+](=O)[O-])c1C(N)=O	0.0%	-11	-0.1	-10	50*	8.1
Nc1nc(N)c(N=Nc2ccccc2)c(=O)[nH]1	-0.6%	-21	-0.5	5	-9	-4.4
COc1ccc(C(=O)NCC(C)C)c(OC)c1	0.6%	4	-0.5	45	-3	-0.6
O=C(CCSCc1ccccc1)Nc1ccc2c(c1)OCCO2	-0.4%	-12	0.1	-12	-9	0.2
O=C(N/N=C/c1cc(Br)c(O)c(Br)c1)c1cc2c(ccc3ccccc32)o1	-1.1%	?	-0.3	-7	3	6.2
C/C(=N\NC(=S)Nc1c(C)cccc1C)c1ccc(OC(F)F)cc1	-0.2%	-11	2.5	7	-15	-4.6
COC(=O)CNC(=O)COC(=O)/C=C/c1ccc(F)cc1	3.9%	-15	0.4	-6	-5	-1.6
COCCNC(=O)CN(C(=O)CCC(=O)Nc1cc(C)on1)c1ccccc1C	-0.3%	4	-0.9	4	3	-2.1

Screening results from PubChem BioAssay.
